Compound activity from PubChem BioAssay.
Menin-MLL FL inh: displaces fluorescein MLL peptide from human menin; Fluorescence polarization, fluorescein-MLL peptide displacement from menin; FP activity change, % at 61.4 µM; 290,000 tested, under 10 active; inconclusive = falling polarisation curve, or a change in total fluorescence; inactive = total fluorescence flat and polarisation flat or rising; no compound was filed as active; the % refers to the polarisation; negative = inhibition;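 also: % of control where 0% means no effect; inhibitors lower the polarisation; unlabelled MLL peptide was the positive control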
TRPML1 agonist: activates the human TRPML1 channel; Q9GZU1; AID 624414; TRPML1-expressing cells, Ca2+ dye fluorescence, FDSS; host cell line not named in the record; reference of the full effect not given here; actives 0.12% (n = 410,000); activation, % (test concentration not listed); in the data active = activation above about 50%; inconclusive = about 30% to 50%; inactive = below about 30%; also: 0% is about no effect; the text of the record puts the active cut at 80%
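Calcium fluorescence on an FDSS kinetic reader gave the read-out. Tet-induced TRPML1-DL cells were plated overnight, dye-loaded (Ca8 with quencher, 45-90 min, room temperature, dark), then read 110 s after compound addition, and again 110 s after 4uM final 54-4 (EC80).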
ClpP mod: qHTS Assay for Activators of ClpP | Potency, µM (highest dose often 57.5 µM), for the others: at the highest dose activity change, negative = active | actives 1.9% (n = 340,000) | purified B. subtilis ClpP, FRET peptide cleavage, 20 min | AID 651965, 2013 | ATP-dependent Clp protease proteolytic subunit (Bacillus subtilis (strain 168)), P80244; active = well fitted falling curve with a large enough effect; inconclusive = small, poorly fitted or top-dose-only effect; inactive = no such curve, though single readings can be large or run the other way; also: potency is read from the fitted curve at half-maximal effect; the source files actives as falling curves though it sought activators and does not explain the sign; nearly all actives have a fitted effect of over 65% in size; many hits overshoot -100%
Target sequence (P80244 whole entry, looked up): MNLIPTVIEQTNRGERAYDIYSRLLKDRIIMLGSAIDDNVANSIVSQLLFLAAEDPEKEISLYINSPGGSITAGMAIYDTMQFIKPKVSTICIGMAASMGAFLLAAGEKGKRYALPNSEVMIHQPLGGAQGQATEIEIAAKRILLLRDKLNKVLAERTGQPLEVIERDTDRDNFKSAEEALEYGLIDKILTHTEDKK
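FRET quenching reversal measured ClpP activation: 10 microg/mL B. subtilis ClpP at pH 8 with the FRET-FV decapeptide, read at 430 nm after 320 nm excitation. The 20-min minus 0-min signal was scaled between DMSO/no-enzyme wells and ADEP (5.8 microM final).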
Sfp PPTase inh: Sfp phosphopantetheinyl transferase inhibition; Biochemical Sfp PPTase activity, qHTS; Potency, µM, without a hit: max response, negative = inhibition, most hits filed as inhibitors; actives 3.5% (n = 310,000); AID 1490; active = well fitted inhibition curve with a large enough effect; inconclusive = small, poorly fitted or top-dose-only effect, or another doubt; inactive = no such curve, though single readings can be large or run the other way;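 also: the enzyme is Sfp with the accession as filed and its product quenches rhodamine fluorescence; potency is read from the fitted curve at half-maximal effect; 0% = enzyme reaction without inhibitor and -100% = no enzyme wells; top concentration of the series not given in the record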
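Buffer: 50 mM Hepes-Na pH 7.6, 10 mM MgCl2, 0.01% Nonidet P-40, 0.01% BSA. Enzyme 15 nM, pre-exposed to compound 15 min; substrates then added and fluorescence change tracked over 30 min.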
TRPML1 blocker: human mucolipin-1 channel inhibition; TRPML1-inducible cells, Ca2+ dye fluorescence, FDSS; stronger effect = lower value; inhibition of EC80 agonist-evoked calcium signal; Q9GZU1; activity change, negative = inhibition, % (concentration not given with the values); actives 0.02% (n = 390,000); in the data active means activity change below about -50%; inconclusive means about -30% to -50%; inactive means above about -30%;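 also: stimulus is agonist 54-4 at its EC80 concentration; % is scaled to controls: 0 for no effect and ±100 for the full control effect; compound concentration not given in the record; the text of the record puts the active cut at -80%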
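TRPML1-DL cells, Tet-induced overnight (~16 h, 37 °C) at 1,500 cells/well, were loaded with Ca8 no-wash dye plus quencher for 45-90 min at room temperature. Compounds were pinned during FDSS kinetic reading; agonist 54-4 at EC80 (4 uM final) then added.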
PINK1 modulator: changes PINK1 expression; PINK1 immunofluorescence, high-content cytometry, 24 h; actives 0.2% (n = 410,000); Potency, µM (titrated, usually from 76.6 µM), inactives show at the top dose activation (PINK1 increase), most hits filed as activators; active = well fitted activation curve with a large enough effect; inconclusive = small, poorly fitted or top-dose-only effect; inactive = flat fitted curve, though single readings scatter; cell line not stated here;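 also: potency is read from the fitted curve at half-maximal effect; % of control where 0% means no effect; nearly all actives have a fitted effect of over 65% in size; a mitochondrial uncoupler was the plate control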
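Decision-based qHTS: stable cells, 24 h exposure to five compound concentrations, CCCP as control. Fixed cells stained for PINK1 plus nuclear, mitochondrial and cell markers, cytometer read.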
TRPV1 potentiator: potentiators of human vanilloid receptor 1 (TRPV1); Q8NER1; TRPV1-expressing cells, Fluo-8 calcium influx, capsaicin EC20 potentiation; host cell line not named in the record; control for the full effect not named in the record; potentiation, % at 8.33 µM; actives 0.02% (n = 320,000); AID 540277; active means potentiation above 80%; inconclusive means 30% to 80%; inactive means below 30%; also: 0% is about no effect
Target sequence (Q8NER1 whole entry, looked up): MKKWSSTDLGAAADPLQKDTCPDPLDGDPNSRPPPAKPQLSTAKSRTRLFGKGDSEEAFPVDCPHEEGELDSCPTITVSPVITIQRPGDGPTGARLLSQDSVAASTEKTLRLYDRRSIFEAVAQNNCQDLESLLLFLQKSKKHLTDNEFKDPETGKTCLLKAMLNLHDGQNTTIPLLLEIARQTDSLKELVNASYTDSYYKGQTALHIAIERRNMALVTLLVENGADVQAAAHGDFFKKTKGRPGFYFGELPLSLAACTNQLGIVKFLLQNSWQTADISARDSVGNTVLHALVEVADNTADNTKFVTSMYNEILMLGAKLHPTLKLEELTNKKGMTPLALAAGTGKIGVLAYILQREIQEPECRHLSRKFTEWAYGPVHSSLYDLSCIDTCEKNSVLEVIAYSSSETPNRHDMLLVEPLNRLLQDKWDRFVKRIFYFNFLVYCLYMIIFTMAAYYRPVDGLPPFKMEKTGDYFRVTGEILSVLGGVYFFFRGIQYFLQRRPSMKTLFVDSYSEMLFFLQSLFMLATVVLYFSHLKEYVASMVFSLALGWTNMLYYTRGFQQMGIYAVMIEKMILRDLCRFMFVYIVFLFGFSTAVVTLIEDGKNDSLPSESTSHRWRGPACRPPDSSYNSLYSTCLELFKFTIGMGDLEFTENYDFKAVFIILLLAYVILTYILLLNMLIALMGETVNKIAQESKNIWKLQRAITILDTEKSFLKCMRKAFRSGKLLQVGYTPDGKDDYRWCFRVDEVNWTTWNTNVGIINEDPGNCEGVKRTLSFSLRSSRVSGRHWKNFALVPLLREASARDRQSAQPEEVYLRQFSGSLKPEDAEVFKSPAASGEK
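Fluo-8 calcium influx in TRPV1-expressing cells, kinetic read (ex 480/em 520 nm). Compound added and read 3 min for agonist activity, followed by capsaicin at EC20 final and 2 min further read for enhancement.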
Active calls of the source: *; ? = inconclusive; . = no result given; [ ] = another dose, or the depositor's remark.

Results follow in this order: Menin-MLL FL inh, TRPML1 agonist, ClpP mod, Sfp PPTase inh, TRPML1 blocker, PINK1 modulator, TRPV1 potentiator
CC(C)C(OC(=O)CN1C(=O)COc2ccccc21)C(=O)NC1CCCCC1 (stereo not drawn)
  0.9, -0.4, ., 17%, 37, 1.7%, 14
CCCOC(=O)C(=O)NNc1ccccc1
  -1.3, 1.2, ., -18%, -3, 1.2%, 29
O=C(NNC1CC(=O)N(c2ccc(Br)cc2)C1=O)c1ccccn1 (stereo not drawn)
  2.3, 0.5, ., ?, -16, -1.1%, -10
COC(=O)c1c(C(=O)OC)c(-c2ccccc2)n2c1CS(=O)(=O)C2
  2.6, 0.3, -1.0%, 17%, -8, -1.1%, 9
Cc1cc(Oc2ccccc2)nc(-c2ccccc2)n1
  3.1, 1.6, 1.2%, -5%, 24, ?, -16
NS(=O)(=O)c1ccc(NCc2ccccc2OCc2ccccc2F)cc1
  5.5, -0.2, 1.4%, 1%, -2, -0.2%[38.3 µM], 7
COc1cccc(N2C(=O)N(CC(=O)NCc3cccc(OC)c3OC)c3ccccc3S2(=O)=O)c1
  ., 0.3, 1.9%, ., 24, 13%, .
Cc1ccc(OCC(=O)Nc2cccc(-c3nc4ccccc4o3)c2C)cc1C
  ., -0.1, -0.8%, ., 6, 4.8%, .
CC(Oc1ccc2ccc(=O)oc2c1)C(=O)NC(Cc1c[nH]c2ccc(O)cc12)C(=O)O (stereo not drawn)
  -1.7, ., -30%, 18%, ., 0.1%, 11
O=C(CSc1ncn[nH]1)Nc1ccc(Cl)c(Cl)c1
  0.6, -0.8, 1.0%, 18%, -7, 1.2%, -4
Cc1cc(Cl)nc(Cl)c1C(=O)N1CCOCC1
  -3.0, 0.0, -2.5%, 25%, -19, -0.2%, -2
CCN(C(=O)COc1ccc(C)nc1[N+](=O)[O-])C1CCS(=O)(=O)C1 (stereo not drawn)
  6.3, -0.7, 10µM*, 7%, 2, -0.9%, 5
COc1ccccc1N(CC(=O)N1CCC(C)CC1)S(=O)(=O)c1ccc(C)cc1
  ., 0.4, 1.1%, ., -8, 0.3%, .
COc1cc(C(=O)NC(C)CCc2ccccc2)cc(OC)c1OC (stereo not drawn)
  0.1, 0.1, -2.8%, 14%, 7, -1.2%, ?
Cc1ccc2nc(NC(=O)CSc3ncc(C(=O)Nc4ccccc4)c(=O)n3C)sc2c1
  ., 1.6, ?, ., 18, 12%, .
CC(NC(=O)CNC(=O)c1cccs1)c1cccc(C(F)(F)F)c1 (stereo not drawn)
  ., 0.0, 0.4%, ., -4, 2.7%, .
O=C(COc1coc(CN2CCN(c3ccccc3F)CC2)cc1=O)NC1CCCCC1
  ., 0.0, 1.0%, ., 19, -1.2%, -8
Cc1ccccc1C(=O)N1CCN(c2ccc([N+](=O)[O-])c(NCc3cccnc3)c2)CC1
  0.8, 0.4, -9.4%, -7%, -2, -1.8%, -7
CCOc1cc(S(=O)(=O)N2CCN=C2Cc2ccccc2)ccc1F
  ., -0.4, -2.2%, 3%, -5, 0.3%, 1
COc1ccc(-c2nn(-c3ccccc3)cc2C(=O)N(C)CC(=O)Nc2ccccc2Br)cc1
  ., 1.6, -13%, ., -2, 0.9%, .
Cc1noc(C)c1-c1ccc(C(=O)NCCN2CCOCC2)c2occc12
  ., -0.6, -28%, ., ., 3.0%, .
CC(=O)c1ccc(N2CCN(C(=S)NCc3ccco3)CC2)cc1
  -0.2, 1.5, -11%, 5%, -14, 1.4%, -4
O=C(c1ccc2c3c(cccc13)CC2)C1CCCN(C(=O)c2ccc(=O)[nH]c2)C1 (stereo not drawn)
  0.7, -0.6, -6.3%, 50µM*, 1, 4.3%, 21
CSc1ncc(CN2CCCC(C(=O)Nc3ccc(-c4ccco4)cc3)C2)cn1 (stereo not drawn)
  17, 0.8, -4.3%, 14µM*, 0, 1.8%, 10
S=c1[nH]nc(COc2ccccc2)n1-c1ccccc1
  -1.2, -0.5, ., 21%, 11, 5.4%, -3
COc1ccc2oc(C(=O)NN3C(C)CCCC3C)c(C)c2c1 (stereo not drawn)
  -0.8, -0.5, ., 15%, 10, 1.7%, -10
CC1CCN(C(C(=O)NC2CCCCC2)c2cc3c(cc2[N+](=O)[O-])OCO3)CC1 (stereo not drawn)
  0.5, -0.4, 9.6%, -26%, -4, 3.8%, -26
Cc1cc(C(F)(F)F)nc(SCC(=O)Nc2cc(C)on2)n1
  0.8, -0.5, -0.3%, -2%, 44, 3.5%, .
COc1ccc(NS(=O)(=O)c2ccc3c(c2)N(C(C)=O)CCO3)cc1
  ., -0.8, -2.8%, 7%, -23, -1.0%, 2
COc1ccccc1CN1C(=O)C(=O)c2cccc(C)c21
  ., 1.7, 1.5%, ., -13, 0.3%, .
CCOC1(c2ccccc2)CC1C(=O)N/N=C/c1cccc([N+](=O)[O-])c1 (stereo not drawn)
  0.1, 4.9, 1.4%, 2%, -4, -0.3%, 7
CCCCCOC(=O)C1=C(C)N(C)C(=O)NC1c1cc(Br)c(O)c(OC)c1 (stereo not drawn)
  4.5, -1.0, 0.6%, 23%, 12, -1.4%, 0
COc1ccc(Cn2c(=O)c3oc4ccccc4c3n(CC(=O)Nc3cc(C)cc(C)c3)c2=O)cc1
  ., 1.9, -3.1%, ., 4, 0.2%, .
Cc1cc(-n2c(C)cc(C(=O)CSc3nnc4sc5ccccc5n34)c2C)no1
  -3.1, -0.5, 0.7%, -10%, 6, ., 13
CCSc1nc(=S)n(CC)c(C)c1C(C)=O
  0.5, 1.0, -0.7%, -3%, 0, 0.1%[38.3 µM], -22
CN1CCN(C(=O)CCCN2C(=O)/C(=C/c3cccc(Br)c3)SC2=S)CC1
  1.8, 0.5, ., -20%, 4, 1.0%, 7
COc1ccc(C(=O)OCC(=O)Nc2sccc2C(N)=O)cc1OC
  2.9, 0.1, 17%, 1%, 6, 18%, 5
C/C(N)=C(/C#N)C(=O)CSc1nc2scc(-c3ccc(F)cc3)c2c(=O)n1C
  -0.2, 3.6, -0.1%, 6%, 14, 3.4%, -1
O=C(Nc1ccc(Br)cc1)c1ccc(N2C(=O)C3CC=CCC3C2=O)cc1 (stereo not drawn)
  6.2, 1.1, 1.2%, -1%, -4, 1.9%, 4
O=C(Nc1nc2ccc([N+](=O)[O-])cc2s1)c1ccc(S(=O)(=O)N2CCCc3ccccc32)cc1
  18, -0.4, 0.7%, 0%, 0, ?, 12

Profiles as entered above. Order of values: Menin-MLL FL inh, TRPML1 agonist, ClpP mod, Sfp PPTase inh, TRPML1 blocker, PINK1 modulator, TRPV1 potentiator
Cc1ccc2nc(NC(=O)CSc3ncc(C(=O)Nc4ccccc4)c(=O)n3C)sc2c1 reads ., 1.6, ?, ., 18, 12%, .
CC1CCN(C(C(=O)NC2CCCCC2)c2cc3c(cc2[N+](=O)[O-])OCO3)CC1 (stereo not drawn) reads 0.5, -0.4, 9.6%, -26%, -4, 3.8%, -26

Carrying on.
Results follow in this order: Menin-MLL FL inh, TRPML1 agonist, ClpP mod, Sfp PPTase inh, TRPML1 blocker, PINK1 modulator, TRPV1 potentiator
COc1ccc(S(=O)(=O)N2CCCCC2)cc1NC(=O)c1ccco1
  -1.1, 0.4, 16µM*, 6%, -7, 5.1%, -23
COC(=O)c1c(NC(C)=O)sc(Cc2ccccc2)c1C
  3.0, 1.7, -13%, -19%, 24, 0.6%, .
CC1CCCN(C(=O)CNC(=O)c2sc3ccccc3c2Cl)C1 (stereo not drawn)
  ., -1.3, -4.8%, ., -4, 0.5%, -23
CN1C(=O)SC(Nc2ccccc2C(=O)O)C1=O (stereo not drawn)
  -0.6, 0.5, 92%, 8%, -10, -1.1%, -8
CCn1nnc(NC(=O)Cc2ccc(Cl)cc2)n1
  3.5, -1.1, 34%, -3%, 40, -0.4%, -6
CC1CCN(C(=O)c2[nH]cnc2C(=O)N[C@@H](CCCCNC(=O)OC(C)(C)C)C(=O)OC(C)(C)C)CC1
  -0.8, 0.1, -3.1%, -1%, 49, 2.5%, -20
Cc1csc(NC(=O)CSc2nc(C)nc3c2c(=O)n(C)c(=O)n3C)n1
  2.3, 0.1, -6.8%, -1%, -7, -0.8%, 9
Cc1ccccc1SCC(=O)OCC(=O)Nc1sccc1C(N)=O
  ?, 0.4, -2.6%, ?, -25, -0.3%, 22
CCC(CC)c1nnc(NC(=O)c2nn(C)c(=O)c3ccccc23)s1
  0.5, ., ., 11%, ., ., 13
N#Cc1ccc(C(=O)NCC(c2ccco2)N2CCCC2)cc1 (stereo not drawn)
  1.8, -0.6, -0.5%, 19%, 5, 0.7%, -10
N#CC1=C(N)Oc2n[nH]c(-c3ccccc3)c2C1c1cccnc1 (stereo not drawn)
  0.0, -0.9, 0.3%, 15%, -1, -1.1%, 4
Cc1ccc(C(=O)NC(C(=O)OCc2cn3cc(Cl)ccc3n2)C(C)C)cc1 (stereo not drawn)
  ., 2.2, -3.1%, ., 5, 1.1%, -4
CC1(C)C(CC2OCC(CN3CCCCC3)O2)[C@H]2CC[C@@H]1C2 (stereo partly drawn)
  2.7, -0.8, 2.0%, 2%, 2, 3.9%, 2
Cc1ccc(NC(=O)O/N=C/c2ccc(F)cc2)cc1
  4.2, -1.3, -2.6%, 8%, -6, 1.0%, -17
COC(=O)NCC(c1cccnc1)N1CCN(c2ccc(F)cc2)CC1 (stereo not drawn)
  ., 0.3, -1.7%, ., -14, 1.4%, .
CC(C)CC(COCc1ccc([N+](=O)[O-])cc1)N1CCN(C(=O)c2ccc(C(F)(F)F)cc2)CCC1=O (stereo not drawn)
  0.3, 1.2, 0.9%, 5%, 21, -0.9%, 1

Looked up above:
PINK1 modulator with CC1CCN(C(=O)c2[nH]cnc2C(=O)N[C@@H](CCCCNC(=O)OC(C)(C)C)C(=O)OC(C)(C)C)CC1 reads 2.5%
TRPML1 agonist with Cc1ccc(C(=O)NC(C(=O)OCc2cn3cc(Cl)ccc3n2)C(C)C)cc1 (stereo not drawn) reads 2.2
